INS promoter inh – inhibitors of insulin promoter-driven GFP, primary screen, imaging, TRM-6 cells (human fetal islet line), eGFP reporter, cell count; reporter expression induced with tamoxifen; inhibition, % at 2 µM; actives 0.9% (n = 130,000);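 active = inhibition above the mean plus 3 SD, with well images judged a real hit on visual review, cut at about 60% in these data, passing the limit was not always enough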
GALR2 agonist – GALR2 receptor agonists, primary screen, cell-based. actives 0.48% (n = 140,000). activation, %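 (tested at 5 µM)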. GALR2-expressing cells, agonist activation read-out. AID 803, 2007. Galanin receptor type 2 (Homo sapiens), O43603;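 active = above mean plus 3 SD of all compounds, about 5% in these data, not always enough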;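 note: 0% = vehicle buffer wells and 100% = reference agonist at full effect; tested in CHO reporter cells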
RGS16-Gao – modulators of RGS16 binding to Galphao, primary screen, biochemical, human proteins, multiplexed bead flow cytometry; Regulator of G-protein signaling 16 (Homo sapiens) + Guanine nucleotide-binding protein …; actives 0.38% (n = 220,000); binding response (% of control), % at 10 µM; AID 1441, 2008; bead-based flow cytometry RGS16-Galphao binding, fluorescence; actives lie on both sides;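 active = below 25% or above 175%, edge rows of some plates excepted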;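 note: Galphao activated by GDP with aluminum fluoride before binding; 100% = wells without compound and 0% = beads without RGS; some results beyond the cut were filed as inactive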
PKD1 kinase inh – inhibitors of human PKD1 kinase, biochemical, fluorescence polarization; actives 0.056% (n = 200,000); Serine/threonine-protein kinase D1 (Homo sapiens), Q15139; PKD1 kinase fluorescence polarization assay; inhibition, %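 (about 10 µM by stock and volumes)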;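 active = inhibition of 50% or more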;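 note: controls were vehicle for no effect and a reference inhibitor for full effect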
Target sequence (Q15139 whole entry, looked up): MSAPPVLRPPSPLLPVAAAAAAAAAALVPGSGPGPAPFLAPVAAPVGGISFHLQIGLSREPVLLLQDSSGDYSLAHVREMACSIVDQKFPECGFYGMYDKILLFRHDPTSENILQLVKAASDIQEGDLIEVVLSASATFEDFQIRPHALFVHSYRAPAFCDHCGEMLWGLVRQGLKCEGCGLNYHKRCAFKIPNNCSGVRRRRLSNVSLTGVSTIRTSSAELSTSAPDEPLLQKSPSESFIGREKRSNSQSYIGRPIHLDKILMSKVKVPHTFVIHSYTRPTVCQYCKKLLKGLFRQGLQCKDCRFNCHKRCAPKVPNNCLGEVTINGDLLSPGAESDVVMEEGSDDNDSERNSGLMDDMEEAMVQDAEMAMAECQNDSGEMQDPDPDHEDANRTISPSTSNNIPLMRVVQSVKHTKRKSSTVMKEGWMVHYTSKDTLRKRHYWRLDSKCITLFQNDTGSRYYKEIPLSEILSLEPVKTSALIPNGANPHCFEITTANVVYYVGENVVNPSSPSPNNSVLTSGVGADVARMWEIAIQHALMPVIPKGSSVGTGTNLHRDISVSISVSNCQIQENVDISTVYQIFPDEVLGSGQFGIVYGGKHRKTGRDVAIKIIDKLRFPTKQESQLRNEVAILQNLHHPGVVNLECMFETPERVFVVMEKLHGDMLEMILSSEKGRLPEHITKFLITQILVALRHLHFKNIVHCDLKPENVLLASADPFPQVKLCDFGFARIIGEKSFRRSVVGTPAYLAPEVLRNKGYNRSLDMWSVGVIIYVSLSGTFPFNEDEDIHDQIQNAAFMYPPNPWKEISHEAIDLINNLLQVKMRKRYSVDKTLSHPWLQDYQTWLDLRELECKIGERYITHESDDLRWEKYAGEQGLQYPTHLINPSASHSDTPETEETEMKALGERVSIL
HSV replic up – enhancers of HSV replication in host cells, fold increase, host cell viability | HSV replication augmentation in cells | actives 0.005% (n = 220,000) | maximum fold increase | AID 1956, 2009;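 active = peak rise of 1.5-fold or more in the series; tested in PC3 cells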;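 note: first round at 10 µM; read as green reporter fluorescence; hits show the peak of a series up to 25 µM; 1 = signal of infected wells without compound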
INS promoter inh cell count – further read-out of INS promoter inh, marked with its call; normalized cell count, %; measured here: cell count, toxicity; reference of the scale not given here;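 cells exposed to compound for 48 h; stained nuclei by imaging scaled within each plate; lower means fewer cells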
HSV replic up primary fold – second read-out of HSV replic up, no call of its own (marks repeat the call); fold increase; compound at 10 µM; measured here: primary screen fold increase 10 uM; tested in PC3 cells;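 GFP signal in the first replicate; 1 = infected wells without compound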
The depositor's hits bear a star; i = inactive; x = no result given.

SMILES	INS promoter inh	INS promoter inh cell count	GALR2 agonist	RGS16-Gao	PKD1 kinase inh	HSV replic up	HSV replic up primary fold
CCCN(C(=O)c1cccs1)c1nnc(-c2ccncc2)s1	x	x	-0.1	101	-5	x	x
Cc1ccnc(Nc2nc3ccccc3o2)n1	x	x	-1.8	106	4	i	0.92
COCCOC(=O)c1c(C)oc2ccc(OC(=O)c3ccco3)cc12	25	132	-1.8	131	-3	i	1
CCSc1nnc(NC(=O)NC2CCCCC2)s1	50	159	x	105	-3	i	0.97
CN1CCN(C(=O)c2cnn(-c3ccccc3)c2NC(=O)c2ccccc2)CC1	-20	125	x	110	-3	i	1.1
N=c1n(CC(=O)c2ccc([N+](=O)[O-])cc2)c2ccccc2n1Cc1ccccc1Cl	39	128	-0.6	192	4	i	1.1
O=C(CCCCN1CCCCC1)c1ccc2c(c1)Cc1ccccc1-2	-67	48	x	122	1	i	0.85
CC1CC(C)(C)NC(=S)N1CCC(=O)N1CCN(c2ccccc2)CC1 (stereo not given)	33	127	x	114	0	i	1
COc1ccc(CC(=O)Nc2ccc(S(=O)(=O)Nc3nc(C)cc(C)n3)cc2)cc1	26	128	-0.7	100	-1	i	1
CN(C)c1ccc(NC(=O)c2ccc([N+](=O)[O-])cc2Cl)cc1	5	95	-0.5	106	-5	i	0.84
Cc1ccc(C(OCCN(C)C)c2cccc(C(F)(F)F)c2)cc1 (stereo not given)	x	x	-1.7	112	8	i	0.87
CC(=O)c1cc2c(cc1N(C(=O)Cn1nnc3ccccc31)C(C(=O)NCCC(C)C)c1cccnc1)OCO2 (stereo not given)	x	x	x	112	-4	i	1
CCC(=O)OCc1c(C(F)(F)F)nn(C)c1Oc1cccc(C(F)(F)F)c1	-13	110	-1.5	102	-7	i	0.95
CC1=CC(C)C2C(=O)N(CCCN(C)C)C(=O)C2C1 (stereo not given)	-29	190	-1.9	93	-8	i	0.94
C[C@@H]1CC=C[C@H]2[C@H]1C(=O)N(Cc1ccccc1)[C@H]2c1ccc2ccccc2c1/C=C/c1ccccc1	x	x	x	102	x	i	0.84
COc1cccc(OCCNC(=O)Nc2cc(F)c(F)cc2Cl)c1	x	x	x	92	-10	i	0.96
COc1ccc2c(c1)Cc1sc(NC(=O)c3ccccc3)nc1-2	43	98	-2.0	100	-2	i	0.87
COc1cc2c(cc1OC)C1=C(C#N)CC/C(=N\S(=O)(=O)c3ccccc3)N1CC2	x	x	-0.7	103	-5	i	0.99
O=C(/C=C/c1ccc2c(c1)OCO2)N1CCN(c2n[nH]c(=O)[nH]c2=O)CC1	x	x	x	105	x	i	0.85
Cc1cccc(OCCOC(=O)C2CCN(S(=O)(=O)c3cccs3)CC2)c1	x	x	-2.1	99	8	i	1
Cc1cccc(N2CCN(C(=O)CC(NC(=O)c3ccccc3)c3ccccc3)CC2C)c1 (stereo not given)	x	x	-0.5	105	-17	i	0.8
C/C(=N\NC(=S)NC1CCCCC1)c1ccccc1	x	x	-0.2	101	2	i	0.89
CN(Cc1cn(-c2ccccc2)nc1-c1ccc(Cl)cc1)C(=O)CCC(=O)O	15	118	-0.9	103	1	i	0.88
O=C(NCc1ccncc1)c1cc(C(=O)C2CCCCC2)c[nH]1	x	x	x	99	-7	i	0.81
CCCCC(=O)OCC(=O)c1[nH]c(C)c(C(C)=O)c1C	x	x	x	100	-8	i	1
CC(=O)CSc1nnc(-c2cnccn2)n1-c1ccccc1	-8	53	0.1	99	-2	x	x
S=c1[nH]nc(-c2ccccn2)n1/N=C/c1ccccc1	3	36	-0.7	140	-7	i	1.1
O=C(Nc1ccc2c(c1)CCC2)c1cccc(F)c1	-16	83	-1.7	214	-21	i	0.99
COc1cccc(Nc2nc3ccccc3n3cnnc23)c1	x	x	-1.4	103	-11	i	0.83
O=C(NN1C(=O)c2ccccc2NC1c1ccc([N+](=O)[O-])o1)c1ccc([N+](=O)[O-])cc1 (stereo not given)	-36	98	x	102	-1	i	0.91
N/C(=N\OC(=O)CN1C(=O)c2ccccc2C1=O)c1ccc(Br)cc1	x	x	x	99	5	i	0.96
CCCCn1c(N)c(N(CC)C(=O)CCc2ccccc2)c(=O)[nH]c1=O	-11	86	-1.2	80	-9	i	1
COc1ccccc1NC(=S)N1CCCc2ccccc21	x	x	x	120	-2	i	0.88
CC1CN(C(=S)SCCN2C(=O)CCC2=O)CC(C)O1 (stereo not given)	x	x	x	94	1	i	0.84
COc1cc(OC)cc(C(=O)NCCOc2ccccc2)c1	33	102	0.0	118	-8	i	1.1
CCn1ncc(/C=C/C(=O)Nc2c(C)nn(CC)c2C)c1C	x	x	-4.7	71	2	i	0.98
COc1ccccc1C(=O)NCCn1ccc2ccccc21	-27	118	-1.9	101	13	i	1.1
CCOC(=O)NNC(=O)C12CC3CC(CC(C3)C1)C2	-8	90	x	101	1	i	0.98
CCC(C)[C@H](NC(=O)N1CCN(c2cccc(C(F)(F)F)c2)CC1)C(=O)OC (stereo not given in full)	-200	137	-1.9	100	0	i	0.99
O=C1c2ccccc2NC(c2ccccc2)N1c1ccc(O)cc1 (stereo not given)	x	x	-0.3	100	-4	i	0.85

Fetched by compound from the entries so far, three records:
SMILES	INS promoter inh	INS promoter inh cell count	GALR2 agonist	RGS16-Gao	PKD1 kinase inh	HSV replic up	HSV replic up primary fold
N/C(=N\OC(=O)CN1C(=O)c2ccccc2C1=O)c1ccc(Br)cc1	x	x	x	99	5	i	0.96
CCC(C)[C@H](NC(=O)N1CCN(c2cccc(C(F)(F)F)c2)CC1)C(=O)OC (stereo not given in full)	-200	137	-1.9	100	0	i	0.99
COc1ccccc1C(=O)NCCn1ccc2ccccc21	-27	118	-1.9	101	13	i	1.1

Sorted by value in PKD1 kinase inh (descending): 3 of the compounds above
mol,GALR2 agonist,RGS16-Gao,PKD1 kinase inh,HSV replic up primary fold
Cc1ccc(C(OCCN(C)C)c2cccc(C(F)(F)F)c2)cc1 (stereo not given),-1.7,112,8,0.87
CCC(C)[C@H](NC(=O)N1CCN(c2cccc(C(F)(F)F)c2)CC1)C(=O)OC (stereo not given in full),-1.9,100,0,0.99
CCSc1nnc(NC(=O)NC2CCCCC2)s1,x,105,-3,0.97

More structures follow:
SMILES	INS promoter inh	INS promoter inh cell count	GALR2 agonist	RGS16-Gao	PKD1 kinase inh	HSV replic up	HSV replic up primary fold
O=C(c1cc(-c2cccs2)nc2ccccc12)N1CCN(c2ccccc2)CC1	x	x	x	101	-1	i	0.8
O=C(/C=C/c1ccc([N+](=O)[O-])cc1)NCCSc1ccccc1	0	123	-3.8	94	-12	i	1.1
Nc1nc(CCl)nc(Nc2ccccc2)n1	-33	74	x	88	2	i	0.9
O=C(CC1(O)C(=O)N(Cc2ccccc2Cl)c2ccccc21)c1ccco1 (stereo not given)	68	72	-0.5	97	-1	i	1.1
O=C(/C=C/c1ccco1)Oc1cc(Br)cc(/C=N/NC(=O)c2ccccc2O)c1	-4	30	-2.5	100	-4	i	0.59
CC1CN(c2ccccc2)C(=O)CS1 (stereo not given)	19	122	-1.4	97	-3	i	0.91
CCN(C(=O)COC(=O)c1cc(S(=O)(=O)N2CCOCC2)c(Cl)cc1Cl)C1CCS(=O)(=O)C1 (stereo not given)	-61	163	x	102	-7	i	0.89
Cc1cc(-c2nnc(CCC(=O)N(C)CCc3ccccc3)o2)no1	x	x	x	110	x	i	0.96
COc1ccccc1OC(=O)c1ccc(SC)cc1OC	-1	80	-1.1	106	-7	i	0.95
COc1cc(CNCCNC(=O)c2nonc2N)ccc1OCc1ccc(Cl)cc1	x	x	x	105	-4	i	0.73
CC(=O)c1cccc(NC(=O)CSc2nnc(-c3ccc(S(=O)(=O)N4CCCC4)cc3)o2)c1	27	123	0.2	122	-13	i	1.1
CC(C)(O)C1=NOC(c2ccccc2)C1 (stereo not given)	-180	79	-5.1	114	-2	i	0.89
CCCCc1nnc(NC(=O)C(C)Sc2nc(O)c(Cc3ccccc3)c(=O)[nH]2)s1 (stereo not given)	-21	100	x	101	1	i	0.96
Cc1ccc(NC(=O)CC2SCCNC2=O)cc1[N+](=O)[O-] (stereo not given)	x	x	x	92	x	i	0.99
Nc1ccccc1SC1CC(=O)N(c2ccc3c(c2)OCO3)C1=O (stereo not given)	x	x	x	99	x	i	1
COC(=O)c1cccc(NC2CC(=O)N(c3ccc(OC)c(OC)c3)C2=O)c1 (stereo not given)	15	103	-2.1	100	-1	i	1.1
COC(=O)C1=C(C)NC(=O)CC1c1ccccc1F (stereo not given)	x	x	-1.9	99	-15	i	0.95
COc1ccc(-c2[nH]ncc2C2N=C(N)Nc3nc4ccccc4n32)cc1 (stereo not given)	33	35	x	111	4	i	0.98
CCOC(=O)c1ccc(NC(=S)N(CCN(C)C)Cc2cccs2)cc1	x	x	x	96	12	i	0.75
CCCCNC(=S)N(C)/N=C/c1ccc2c(c1)OCO2	x	x	-2.0	107	-2	i	1.1

Reprinted from the part before: four entries, then new ones.
SMILES	INS promoter inh	INS promoter inh cell count	GALR2 agonist	RGS16-Gao	PKD1 kinase inh	HSV replic up	HSV replic up primary fold
COC(=O)C1=C(C)NC(=O)CC1c1ccccc1F (stereo not given)	x	x	-1.9	99	-15	i	0.95
COc1ccc(-c2[nH]ncc2C2N=C(N)Nc3nc4ccccc4n32)cc1 (stereo not given)	33	35	x	111	4	i	0.98
CCOC(=O)c1ccc(NC(=S)N(CCN(C)C)Cc2cccs2)cc1	x	x	x	96	12	i	0.75
CCCCNC(=S)N(C)/N=C/c1ccc2c(c1)OCO2	x	x	-2.0	107	-2	i	1.1
CCOc1ccc(C(=O)NCC(=O)OCC(=O)N2C(C)CCCC2C)cc1 (stereo not given)	-17	97	-0.3	97	1	i	0.97
CCCOc1c(Cl)cc(C(=O)NC)cc1OC	x	x	x	103	-2	i	0.89
C=CCn1c(C(CC)CC(C)(C)O)n[nH]c1=S (stereo not given)	44	51	x	101	-4	i	0.88
Cc1cccc(NC(=S)NC(=O)c2cccs2)n1	-23	134	-1.9	109	-1	i	1.2
Cc1ccn(CCC(=O)N2CCCC(CCC(=O)N3CCN(c4ccccn4)CC3)C2)n1 (stereo not given)	x	x	x	112	-4	i	0.95
COc1ccc2nc(C)cc(SCC(=O)NNC(=O)COc3ccc(C)cc3)c2c1	-20	85	-0.5	101	4	i	0.64
S=C(N/N=C/c1ccc2c(c1)OCO2)NC1CC2CCC1C2 (stereo not given)	x	x	x	102	x	i	0.97
Cc1ccccc1/C=N/NC(=O)CSc1nc2ccccc2o1	20	130	-0.4	107	-15	i	0.92
O=C1CCC/C1=C\Nc1ccc(Cl)c([N+](=O)[O-])c1	x	x	x	91	x	i	0.96
COC(=O)c1cccc(NC(=S)N2CCN(c3ccccc3F)CC2)c1	x	x	x	97	7	i	0.98
COc1cccc2cc(C(=O)NNC(=O)c3ccc(Br)cc3)c(=O)oc12	33	69	x	151	2	i	0.95
CS(=O)(=O)N(CC(=O)Nc1ccccc1-c1ccccc1)c1ccccc1	-31	49	x	101	6	i	1
COC(=O)c1ccc(C)c(NC(=O)CN(c2ccccc2)S(=O)(=O)N(C)C)c1	-64	59	x	101	-1	i	0.63
CC(NC(=O)C1CCCO1)c1ccccc1 (stereo not given)	10	143	-1.4	117	2	i	0.96
C#CCOCCOCCOCCNc1nc(N2CCOCC2)nc(N2CCN(C(=O)[C@H](Cc3cc4ccccc4[nH]3)n3cc([C@@H](N)C(C)CC)nn3)CC2)n1 (stereo not given in full)	x	x	x	107	14	i	1
O=[N+]([O-])c1ccc(Oc2cccc(C(F)(F)F)c2)nc1	x	x	x	102	x	i	1
CCCN1CCN(CCCNC(=O)Cn2ncc3c4ccccc4n(C)c3c2=O)CC1	x	x	-2.3	102	-7	i	0.93
O=C1CC(=C(c2ccccc2)c2ccccc2)C(=O)N1CCCCN1CCN(c2ccccc2)CC1	14	91	-2.3	93	-6	i	0.91
Cc1cc(NC(=O)Cn2nc(C)c([N+](=O)[O-])c2C)no1	x	x	x	101	-7	i	0.89
N#Cc1c(Nc2ccccc2)sc(C(=O)C2CC2)c1N	-45	95	-1.8	99	-2	i	0.91
O=C(C1CC1)N1CCc2cc(Br)cc(S(=O)(=O)N3CCOCC3)c21	8	115	-2.2	88	4	i	1.1
COc1ccc(OCC(O)COc2ccc(OC)cc2)cc1	x	x	-0.7	99	-8	i	0.91
CC1(C)Cc2c(sc3nc4n(-c5ccccc5)c(=O)c(CCC(=O)O)nn4c(=O)c23)CO1	x	x	x	98	x	i	0.96
CN(C(=O)CCN1C(=O)C(C)(C)Nc2ccccc21)c1ccccc1	-306	100	-1.0	100	-2	i	0.86
CCO[C@H]1OC(C(=O)N2CCN(C)CC2)=C[C@@H](C)[C@@H]1CCCO	x	x	x	101	2	i	0.83
CCOC(=O)CC1Sc2ccccc2NC1=S (stereo not given)	x	x	x	98	x	i	0.99

Screening data as filed in PubChem.
